KCNQ2 enhance: potentiators of rat KCNQ2 potassium channel | hit rate 0.54% among 310,000 | B-score at 10 µM | CHO-K1 KCNQ2, FluxOR thallium flux fluorescence; active compounds read high | O88943;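 active = fluorescence ratio B-score at least 3 SD of library B-scores, with initial fluorescence B-score within 3 SD, cut at about 5.3 in these data; same plate scores as AID 2156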;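 note: B-score of peak minus minimum over baseline fluorescence ratio after K+ and Tl+ stimulus; positive B-score means potentiation of KCNQ2 with more thallium influx and brighter signal; only the inactives scoring about 0 or higher are listed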
Target sequence (O88943 whole entry, looked up): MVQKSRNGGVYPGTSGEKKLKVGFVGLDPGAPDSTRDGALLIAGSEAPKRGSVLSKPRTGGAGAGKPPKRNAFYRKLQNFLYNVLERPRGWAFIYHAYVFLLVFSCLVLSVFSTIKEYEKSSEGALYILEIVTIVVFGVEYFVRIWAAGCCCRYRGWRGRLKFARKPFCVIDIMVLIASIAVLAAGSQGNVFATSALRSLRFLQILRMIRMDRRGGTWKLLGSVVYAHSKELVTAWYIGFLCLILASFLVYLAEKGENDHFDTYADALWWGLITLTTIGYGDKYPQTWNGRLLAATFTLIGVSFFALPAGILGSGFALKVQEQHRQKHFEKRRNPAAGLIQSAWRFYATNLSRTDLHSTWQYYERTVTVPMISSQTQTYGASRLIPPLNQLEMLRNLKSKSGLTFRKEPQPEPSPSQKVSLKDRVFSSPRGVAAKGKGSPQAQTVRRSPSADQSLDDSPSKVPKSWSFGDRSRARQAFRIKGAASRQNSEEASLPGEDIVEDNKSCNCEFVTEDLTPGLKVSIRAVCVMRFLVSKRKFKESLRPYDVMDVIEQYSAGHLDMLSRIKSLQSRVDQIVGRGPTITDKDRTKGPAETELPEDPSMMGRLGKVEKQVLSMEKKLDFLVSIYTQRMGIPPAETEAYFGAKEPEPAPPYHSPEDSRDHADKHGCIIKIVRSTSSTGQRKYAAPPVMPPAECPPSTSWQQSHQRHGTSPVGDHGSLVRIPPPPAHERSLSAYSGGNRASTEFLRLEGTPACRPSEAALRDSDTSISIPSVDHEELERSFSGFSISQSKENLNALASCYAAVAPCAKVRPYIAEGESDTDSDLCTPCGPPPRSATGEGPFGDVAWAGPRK
KCNQ2 enhance baseline: also measured in KCNQ2 enhance; calls as there; B-score; compound at 10 µM; measured here: initial fluorescence intensity artifact check;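 brightness before thallium and not channel activity; 0 = typical well and far values either way flag optical interference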
* hit, by the source's call; · = not tested or not shown. An excerpt (hit frequency here may not be typical).

SMILES	KCNQ2 enhance	KCNQ2 enhance baseline
COc1ccc(Br)cc1/C=N/NC(=O)CNC(=O)C1COc2ccccc2O1 (stereo unspecified)	0.45	0.63
NS(=O)(=O)c1ccc(CCNC(=S)Nc2ccc(S(N)(=O)=O)cc2)cc1	0.88	2.41
CC1(C)CC(=O)C2=C(C1)Nc1[nH]n(-c3ccccc3)c(=O)c1C2c1ccc2c(c1)OCO2 (stereo unspecified)	0.71	0.36
CCOC(=O)c1ccc(Cn2cnc3ccccc3c2=O)cc1	1.31	-1
COCCCNC(=S)NC1CC2CCCC(C1)N2Cc1ccco1 (stereo unspecified)	0.72	0.08
CCn1c(SCC(=O)c2cccs2)nnc1-c1ccco1	0.88	-0.09
Cc1ccc(NC(=O)c2cc(-c3cccs3)on2)cc1	0.86	-1.51
COc1ccc(C)cc1NS(=O)(=O)c1ccc2c(c1)oc(=O)n2C	0.01	0.25
O=C(Nc1ccccc1)c1ccc(Br)c(S(=O)(=O)Nc2ccccn2)c1	0.57	-0.58
COc1cccc(-n2nc(C(C)=O)c(C#N)c2-c2ccco2)c1	0.05	1.64
COc1ccccc1OCc1ccc(C(=O)N2N=C(C(F)F)CC2(O)C(F)F)o1 (stereo unspecified)	0.7	-0.37
O=C1c2ccccc2S(=O)(=O)c2cc(N3CCC(C(=O)N4CCCCC4)CC3)ccc21	0.1	-1.67
Cc1cnc(NC(=O)CSc2ncn(-c3ccccc3)n2)s1	2.33	-0.76
Cc1ccc(CNC(=O)C(=O)NCCC2CCCCN2S(=O)(=O)c2cccs2)cc1 (stereo unspecified)	1.47	-1.56
CCc1ccc(C2CC(c3ccco3)=NN2S(C)(=O)=O)cc1 (stereo unspecified)	0.05	1.14
C=CCOc1ccccc1CN1CCC(CO)(CCOc2ccccc2)CC1	1.07	-0.57
C/C(=N\Nc1ccc(C(=O)O)cc1)c1nc2ccccc2n1C	1.2	-1.24
CCOC(=O)CC1CCCCN1C(=O)CCCn1nnnc1CN1CCC(C)CC1 (stereo unspecified)	0.06	-1.57
O=C(NC(=S)Nc1ccc(CN2CCOCC2)cc1)c1cccc([N+](=O)[O-])c1	0.54	-0.01
O=C(COC(=O)C1(c2ccccc2)CC1)N1CCN(c2ccc(F)cc2)CC1	0.04	0.57
O=C(NCc1ccncc1)c1ccc(Oc2ccccc2)cc1	2.27	-0.24
COc1cc(/C=C(/C#N)C(=O)Nc2ccccc2)ccc1OCc1ccc(C(=O)O)cc1	0.98	0.68
O=C(O)CSCC(=O)N1N=C2/C(=C/c3ccccc3)CCCC2C1c1ccccc1 (stereo unspecified)	0.88	-0.61
O=C(CSc1nc2ccccc2c(=O)[nH]1)Nc1cccc([N+](=O)[O-])c1	2.15	1.47
O=C(O)CC(NC(=O)Cc1ccccc1)c1ccccc1 (stereo unspecified)	0.79	0.35
C#Cc1cccc(NC(=O)C2CCN(C(C)=O)CC2)c1	0.33	0.67
CC(C)c1nc2cc(C(=O)N3CCNC(=O)C3c3ccc(F)cc3)ccc2o1 (stereo unspecified)	0.12	-1.39
CCOC(=O)N1CCN(c2c(NCCc3ccc(C)cc3)c(=O)c2=O)CC1	0.37	0.49
CCCN(CCC)c1c([N+](=O)[O-])c(=O)oc2ccccc12	0.05	-2.29
CC(=O)c1cccc2c(O)c(C3=Nc4ccccc4C3=O)[nH]c12	1.08	-1.2

Among those listed so far, three have fluorine:
SMILES	KCNQ2 enhance	KCNQ2 enhance baseline
COc1ccccc1OCc1ccc(C(=O)N2N=C(C(F)F)CC2(O)C(F)F)o1 (stereo unspecified)	0.7	-0.37
O=C(COC(=O)C1(c2ccccc2)CC1)N1CCN(c2ccc(F)cc2)CC1	0.04	0.57
CC(C)c1nc2cc(C(=O)N3CCNC(=O)C3c3ccc(F)cc3)ccc2o1 (stereo unspecified)	0.12	-1.39

(listing goes on)
SMILES	KCNQ2 enhance	KCNQ2 enhance baseline
CN(Cc1nc(-c2cnccn2)no1)Cc1n[nH]c2c1CCCC2	0.09	0.25
CC(=O)N(CCS(=O)(=O)c1ccc(Cl)cc1)Cc1cccs1	0.63	0.67
CN(Cc1ccccc1)C(=O)COc1ccc(C(C)(C)C)cc1	-5.56	·
COC(=O)c1sc(NC(=O)CSc2nnc(Cn3nnc4ccccc43)n2C)nc1C	0.3	0.44
CC(C)(Cl)C1Cc2cc3ccc(=O)oc3cc2O1 (stereo unspecified)	0.6	0.77
COc1ccccc1CCNC(=O)C(=O)NCC1OCCN1S(=O)(=O)c1ccc(F)cc1 (stereo unspecified)	0.08	-0.15
CSC(=S)N/N=C(\C)c1ccc(Br)cc1	2.64	-0.6
FC(F)(F)c1nnc2c(Sc3ccccc3)nc3ccccc3n12	0.01	0.25
CC(=O)Nc1ccc(NC(=O)c2ccccc2N(C)S(C)(=O)=O)cc1	0.07	-1.64
CCCc1cc(=O)oc2cc(OCC(=O)N3CCc4ccccc43)ccc12	0.78	-0.61
CCOC(=O)c1sc(NC(=O)c2ccc(S(=O)(=O)N(C)C)cc2)cc1C	0.41	-0.57
Cc1nn(C)c(C(=O)N2CCc3ccccc32)c1Cl	0.79	0.98
CC(C(=O)N(C)c1ccccc1)N1CCN(C(=O)c2ccccc2)CC1 (stereo unspecified)	1.55	-0.8
O=C(NCc1ccco1)c1ccccc1-c1ccc(C(F)(F)F)cc1	6.09*	2.61*
COc1ccc(CN2CCS(=O)(=O)CC2)cc1OC	0.44	-3.04
CCOCC(=O)Nc1cc(C(=O)Nc2cccc(C)c2C)ccc1Cl	0.33	-0.43
COc1ccc(C(CCN2CCCCC2)c2c(O)cc(OC)cc2OC)cc1 (stereo unspecified)	0.76	1.65
COc1ccc(C(=O)NC(C)c2ccc(-n3ccnc3)cc2)cc1[N+](=O)[O-] (stereo unspecified)	0.8	1.73
CCC(=O)n1nc(-c2ccccc2)nc1NCc1ccccc1	0.94	1.04
Cc1cc(C(=O)N/N=C/c2ccc(O)c([N+](=O)[O-])c2)n[nH]1	0.02	0.03
O=C1OC(c2ccc(F)cc2)=C/C1=C\c1ccc(O)cc1	0.33	1.3
COC(=O)c1nnn(-c2ccccc2)c1N	0.28	1.05
O=C(Nc1ccccc1)N1C2CCC1CC(O)(c1cccnc1)C2 (stereo unspecified)	0.67	-0.12
Cc1ccc2[nH]c(=O)c(C3=NN(C(=O)CCC(=O)O)C(c4cccs4)C3)c(-c3ccccc3)c2c1 (stereo unspecified)	1.2	0.63
CCCCNC(=O)c1cc2c(C)cc(C)cc2[nH]1	1.66	0.6
O=C(O)C1CC=CCC1C(=O)Nc1ccc(Oc2ccc(Cl)cc2)cc1 (stereo unspecified)	1.16	2.35
Cc1cccc(C)c1OCC(=O)Nc1ccc(N2CCOCC2)cc1	0.03	-0.12
O=C(CNC(=O)c1ccc([N+](=O)[O-])cc1)N/N=C/c1c[nH]c2ccccc12	0.17	-0.07
CCCN(CCC)CCCNc1ccc(C(=O)Nc2cccc(OC)c2)cc1[N+](=O)[O-]	0.08	0
COc1cc2c(cc1OC)-c1cc(NC3CCCCCC3)nc(=O)n1CC2	1.13	-0.05

Profiles from above. Order of values: KCNQ2 enhance	KCNQ2 enhance baseline
`CCCN(CCC)CCCNc1ccc(C(=O)Nc2cccc(OC)c2)cc1[N+](=O)[O-]` reads 0.08	0
`COc1ccc(C(CCN2CCCCC2)c2c(O)cc(OC)cc2OC)cc1` (stereo unspecified) reads 0.76	1.65
`O=C1OC(c2ccc(F)cc2)=C/C1=C\c1ccc(O)cc1` reads 0.33	1.3

Additional results.
SMILES	KCNQ2 enhance	KCNQ2 enhance baseline
C=CCNCCOCCOc1ccccc1-c1ccccc1	1.59	1.77
COc1ccc(NS(=O)(=O)c2cc(NC(=O)c3cnc(C)cn3)ccc2N2CCCCC2)cc1	0.11	-0.09
COc1ccc(N2Cc3cccc(C(=O)N4CCN(C(=O)c5ccco5)CC4)c3C2=O)cc1	1.96	1.48
COc1ccc(-n2nc(C(=O)O)c3ccccc3c2=O)cc1	0.2	0.42
CC(=O)c1ccc(NC(=O)CSc2nc(Nc3ccccc3)nc(N3CCOCC3)n2)cc1	1.21	0.68
COc1ccccc1C(=O)NNC(=O)C(=O)NC(C)(C)C	3.82	0.91
CCCN=C1NC(=O)C(CC(=O)NCCc2ccc(OC)c(OC)c2)S1 (stereo unspecified)	0.3	0.06
CCOC(=O)N1CCN(S(=O)(=O)c2cc(-c3nn4c(C)nnc4c4ccccc34)ccc2C)CC1	0.9	-0.24
COc1cccc(CNn2cn[nH]c2=S)c1OCc1ccccc1	0.05	-1.07
O=C(O)C1CCCN1C(=O)NC1CCCCC1 (stereo unspecified)	1.15	-1.55
CCN1C(=O)C(CC(=O)NCc2ccc(Cl)cc2)N(CC)C1=O (stereo unspecified)	0.91	-0.68
CS(=O)(=O)N1CCN(c2ccccc2[N+](=O)[O-])CC1	0.56	0.72
CCC(=O)NC(Nc1sc2c(c1C(=O)OC)CCCC2)(C(F)(F)F)C(F)(F)F	1.74	0.68
COc1cc(NC(=O)N[C@@H](Cc2c[nH]c3ccccc23)C(=O)O)c(C(=O)O)cc1OC	1.03	0.72
COc1cc(/C=C(\C#N)C(=O)NCC2CCCO2)c([N+](=O)[O-])cc1OC (stereo unspecified)	0.01	0.74
O=C(CSc1nncn1-c1cccnc1)Nc1cccc(C(F)(F)F)c1	0.21	-0.06
COc1ccccc1CNC(=O)CCN1C(=O)c2ccccc2C1=O	0.51	-0.94
Cc1ccc(C(=O)COC(=O)c2cn3ccccc3n2)cc1	0.02	2.11
O=C(NCC1CCOCC1)c1cc(COc2ccc(F)cc2F)on1	1.38	1.1
CC1CCN(C(=O)C2CCN(C(=O)c3cc4sccc4n3Cc3ccc(F)cc3)CC2)CC1	0.97	-2.37
COc1ccc(OC(C)C(=O)Nc2ccccc2F)cc1 (stereo unspecified)	0.07	-0.58
CC(C)c1csc(CN2CCN(Cc3ccccc3)C(CCO)C2)n1 (stereo unspecified)	0.95	-0.74
O=c1c([N+](=O)[O-])c[nH]c2ccccc12	1.8	1.01
Cc1ccccc1OC(=O)C1C(c2ccccc2)C(C(=O)O)C1c1ccccc1 (stereo unspecified)	0.32	-0.63
CCCCNc1nc2ccccc2nc1Cl	0.38	0.9
O=[N+]([O-])c1cccc(S(=O)(=O)N2CCc3ccccc3C2)c1	0.2	0.26
CCN(CC)CCCNC(=O)Cn1ncc2c(=O)oc3ccc(C)cc3c21	1.39	0.02
CCOC(=O)c1ccc(NC(=S)N2CCCC(C)C2)cc1 (stereo unspecified)	2.82	-0.75
O=C(N/C(=C\c1ccco1)C(=O)N1CCOCC1)c1ccc([N+](=O)[O-])cc1	0.26	-0.84
CC12CC(NC(=O)N1c1cccc(C(=O)NCc3ccccn3)c1)c1ccccc1O2 (stereo unspecified)	0.68	1.11
COc1ccc(C(NC(=O)/C=C\c2ccco2)c2ccc(OC)c(OC)c2)cc1 (stereo unspecified)	0.28	-0.99
Cc1cccc(NC(=O)COC(=O)c2ccc3c(=O)n4c(nc3c2)CCC4)c1	1.7	-0.8
CCOC(=O)Nc1ccc2c(CN(C)Cc3ccc(F)cc3)cc(=O)oc2c1	0.21	0.39
O=C(N/N=C/c1cccnc1)c1ccc(S(=O)(=O)N2CCCCCC2)cc1	0.04	-0.94
O=S1(=O)CCC(NCC2CCCO2)C1 (stereo unspecified)	0.69	-1.48
COc1ccc(CC(=O)Oc2ccc(Cl)cc2Br)cc1S(=O)(=O)N1CCOCC1	1.57	1.05
COc1ccc(CNC(=O)CSc2nnc3c(n2)[nH]c2ccccc23)cc1	1.39	1.83
COc1cccc(NC(=O)Nc2ccc(Cc3ccncc3)cc2)c1	1.7	-1.2
O=C(c1ccccc1)N1CCCOC1c1ccccc1 (stereo unspecified)	0.01	0.4
CC(C)=CCN1CCN(Cc2cn[nH]c2C2CCCCC2)CC1CCO (stereo unspecified)	2.03	-0.08
Cc1occc1C(=O)NNC(=S)NCC(C)C	0.09	-0.69
Cc1ccc(C2=NNC(=O)C(c3ccc(Cl)cc3)C2)cc1 (stereo unspecified)	1.01	0.15
COc1cccc(C2C(C(N)=O)=C(C)Nc3nc(CCCO)nn32)c1OC (stereo unspecified)	1.51	-0.2
O=C(Nc1ccc(Nc2ccccc2)cc1)c1c(Cl)cccc1Cl	0.21	1.11
CC(C)CCN1C(=O)c2ccc(C(=O)Nc3ccc(Br)cc3C(=O)O)cc2C1=O	5.17	0.5

Three of these compounds in a different format.
Second line of a record: KCNQ2 enhance | KCNQ2 enhance baseline
COc1cccc(NC(=O)Nc2ccc(Cc3ccncc3)cc2)c1
  1.7 | -1.2
O=C(c1ccccc1)N1CCCOC1c1ccccc1 (stereo unspecified)
  0.01 | 0.4
CC(C)=CCN1CCN(Cc2cn[nH]c2C2CCCCC2)CC1CCO (stereo unspecified)
  2.03 | -0.08

Remaining list, next part
SMILES	KCNQ2 enhance	KCNQ2 enhance baseline
COc1cccc2cc(C(=O)NCCN3CCOCC3)oc12	2.23	0.02
NC(=O)c1sc2nc3c(c(-c4ccc(Cl)cc4)c2c1N)CCCC3	0.05	-0.75
O=C(Cn1cnc2ccccc2c1=O)NCC(=O)N1CCOCC1	0.98	-0.61
COc1ccc(CNC(=O)CN(Cc2ccccc2Cl)C(=O)c2csnn2)cc1	0.97	0.59
O=C(O)CCN(Cc1ccccc1)S(=O)(=O)c1ccc(Cl)cc1F	0.38	-0.59
CC(C)=CCc1c(O)cc2c(c1O)C(=O)CC(c1ccccc1)O2 (stereo unspecified)	1.04	0.15
CC1=C(C(=O)Nc2ccc(C)cc2C)C(c2cccc(Cl)c2)n2nc(C(=O)OC(C)C)nc2N1 (stereo unspecified)	0.24	-1.71

2 compounds drawn at random from the list so far, as already listed:
SMILES	KCNQ2 enhance	KCNQ2 enhance baseline
C#Cc1cccc(NC(=O)C2CCN(C(C)=O)CC2)c1	0.33	0.67
COc1ccccc1C(=O)NNC(=O)C(=O)NC(C)(C)C	3.82	0.91

High-throughput results as filed in PubChem.
